Compound activity deposited in PubChem BioAssay by National Center for Advancing Translational Sciences (NCATS).
VACV mCherry inh – vaccinia inhibition (mCherry reporter). Vaccinia virus mCherry reporter infection, fluorescence; about a quarter of the inactives have no number. Potency, µM (doses to about 36.5 µM), inactives show top-dose activity change, negative = inhibition, hits mostly inhibitors. 310,000 compounds, 0.63% hits. AID 720579; active = well fitted inhibition curve with a large enough effect; inconclusive = small, poorly fitted or top-dose-only effect; inactive = no such curve, though single readings can be large or run the other way; tested in A549 cells; further: nearly all actives have a fitted effect of over 35% in size; inactives centre near -10
VACV Venus inh – vaccinia inhibition (Venus reporter); Vaccinia virus Venus reporter expression, fluorescence; Potency, µM (doses to about 36.5 µM), for the others: at the highest dose activity change, negative = inhibition, actives largely listed as inhibitors; 330,000 compounds, 0.46% hits; AID 720580; active means well fitted inhibition curve with a large enough effect; inconclusive means small, poorly fitted or top-dose-only effect; inactive means no such curve, though single readings can be large or run the other way; tested in A549 cells; further: nearly all actives have a fitted effect of over 30% in size; inactives centre near -10
* = called active by the depositor; i = inactive; ? = inconclusive; nt = no result given; & = joins results of further samples; [ ] = dose if it differs, or a comment. On the % scale 0 is the no-effect control and ±100 the full control effect; potency means the concentration at half of the fitted maximal effect.

No. | Molecule | VACV Venus inh | VACV mCherry inh
1 | O=S(=O)(c1ccc(F)cc1)N1CCN(c2ccccn2)CC1 | -0.4% | 1.4%
2 | COc1ccccc1-c1ncnn1-c1sc2c(c1C#N)CCCCC2 | -1.4% | -15.5%
3 | COC(=O)c1ccc(Cn2ccc(=O)[nH]c2=O)cc1 | -5.3% | i
4 | O=C1C2CCCCN2C(=O)N1CCCCN1CCN(c2ccc([N+](=O)[O-])cc2)CC1 (stereo not given) | -0.6% | nt
5 | COc1ccc(Cl)cc1NC(=O)CN(C)C(=O)c1ccc(N2CCCCCC2)c([N+](=O)[O-])c1 | ? | ?
6 | C=CCN1CCc2nc(N)sc2CC1 | -17.2% | i
7 | Cc1ccccc1-c1ccc(CN2CCc3nnc(CNC(=O)c4ccccn4)n3CC2)cc1 | -11.1% | -17.8%
8 | COc1cccc(NC(=O)CC2COc3ccccc3O2)c1 (stereo not given) | -13.8% | -16.3%
9 | Cc1cc(Cl)ccc1C(=O)C1CCCN(C(=O)c2ccc3c(c2)OCO3)C1 (stereo not given) | -16.5% | i
10 | Cc1ccc(C(=O)COC(=O)c2cc(-c3cccs3)nc3ccccc23)cc1 | -10.4% | -1.0%
11 | S=c1[nH]nc(-c2ccc(Cl)cc2Cl)n1-c1ccc2c(c1)OCCO2 | -7.5% | -10.3%
12 | CCn1c(=O)c2c(nc(SCC(=O)NC3CCCC3)n2C)n(C)c1=O | -10.7% | -3.6%
13 | CCOc1cc(C)c(S(=O)(=O)NCc2ccccn2)cc1C | -7.1% | i
14 | COCC(=O)N1CCC(Oc2ccc(C(=O)NCCc3ccncc3)cc2)CC1 | -0.7% | -3.7%
15 | CCCCc1nc(NCCN)c(C#N)c2c1CSC(C)(C)C2 | ? | nt
16 | CC(=O)c1cccc(NC(=O)c2sc(-n3nc(C)c(Cc4ccc5c(c4)OCO5)c3C)nc2C)c1 | ? | -18.8%
17 | C/C(=N\NC(=S)Nc1ccccc1)C1Cc2ccccc2C(=O)O1 (stereo not given) | -4.5% | -13.9%
18 | CCCCNC(=O)C(=O)NCC1CCCN1S(=O)(=O)c1cccs1 (stereo not given) | -11.6% | i
19 | Cn1nc(C(=O)Oc2cc(=O)n(C)c3ccccc23)c2ccccc2c1=O | -10.8% | -1.8%
20 | CC(C)CCSc1nc2c(c(=O)n(C)c(=O)n2C)n1Cc1ccccc1Cl | -1.8% | -9.5%
21 | Cc1ccc(CNC(=O)c2ccc(S(=O)(=O)N3CCCCCC3)cc2)cc1 | -25.8% | i
22 | COCCN(CCOC)S(=O)(=O)c1ccc(C(=O)Nc2ccncc2)cc1 | -7.4% | -7.0%
23 | NC1=NC[C@@H](CC2CCCCC2)N1CCc1cc(C(F)(F)F)cc(C(F)(F)F)c1 | 10µM* | ?
24 | CNCCC1Sc2ccccc2Oc2ccccc21 (stereo not given) | -18.6% | -6.8%
25 | COc1ccc(NC(=O)CSc2nnc3n2CCCCC3)cc1 | 2.5% | -15.7%
26 | COC(CNC(=O)c1ccc(Cn2c(=S)[nH]c3cc4c(cc3c2=O)OCO4)cc1)OC | -3.3% | -1.0%
27 | CC(C)Cn1c(N)c(C(=O)COC(=O)[C@H](C)NC(=O)c2ccccc2Cl)c(=O)n(C)c1=O | -15.3% | i
28 | N#Cc1cccc(NC(=O)C2SC(=Nc3ccccc3)C(C(=O)N3CCOCC3)=C2N)c1 (stereo not given) | -12.0% | -27.8%
29 | COc1ccc(NC(=O)COC(=O)CCCC2=NS(=O)(=O)c3ccccc3N2)cc1 | -16.0%[7.34 µM] | -5.4%[7.34 µM]
30 | COc1ccc(OCCSc2nc3ccccc3n2CC(=O)O)cc1 | -2.0% | i

An excerpt from above in order of formula weight, largest number first:
No. | Molecule | VACV Venus inh | VACV mCherry inh
27 | CC(C)Cn1c(N)c(C(=O)COC(=O)[C@H](C)NC(=O)c2ccccc2Cl)c(=O)n(C)c1=O | -15.3% | i
28 | N#Cc1cccc(NC(=O)C2SC(=Nc3ccccc3)C(C(=O)N3CCOCC3)=C2N)c1 (stereo not given) | -12.0% | -27.8%
26 | COC(CNC(=O)c1ccc(Cn2c(=S)[nH]c3cc4c(cc3c2=O)OCO4)cc1)OC | -3.3% | -1.0%
29 | COc1ccc(NC(=O)COC(=O)CCCC2=NS(=O)(=O)c3ccccc3N2)cc1 | -16.0%[7.34 µM] | -5.4%[7.34 µM]
23 | NC1=NC[C@@H](CC2CCCCC2)N1CCc1cc(C(F)(F)F)cc(C(F)(F)F)c1 | 10µM* | ?
14 | COCC(=O)N1CCC(Oc2ccc(C(=O)NCCc3ccncc3)cc2)CC1 | -0.7% | -3.7%
22 | COCCN(CCOC)S(=O)(=O)c1ccc(C(=O)Nc2ccncc2)cc1 | -7.4% | -7.0%
21 | Cc1ccc(CNC(=O)c2ccc(S(=O)(=O)N3CCCCCC3)cc2)cc1 | -25.8% | i
18 | CCCCNC(=O)C(=O)NCC1CCCN1S(=O)(=O)c1cccs1 (stereo not given) | -11.6% | i
12 | CCn1c(=O)c2c(nc(SCC(=O)NC3CCCC3)n2C)n(C)c1=O | -10.7% | -3.6%
30 | COc1ccc(OCCSc2nc3ccccc3n2CC(=O)O)cc1 | -2.0% | i
17 | C/C(=N\NC(=S)Nc1ccccc1)C1Cc2ccccc2C(=O)O1 (stereo not given) | -4.5% | -13.9%
25 | COc1ccc(NC(=O)CSc2nnc3n2CCCCC3)cc1 | 2.5% | -15.7%
13 | CCOc1cc(C)c(S(=O)(=O)NCc2ccccn2)cc1C | -7.1% | i
15 | CCCCc1nc(NCCN)c(C#N)c2c1CSC(C)(C)C2 | ? | nt
24 | CNCCC1Sc2ccccc2Oc2ccccc21 (stereo not given) | -18.6% | -6.8%

Continued.
No. | Molecule | VACV Venus inh | VACV mCherry inh
31 | CCC1CCc2c(sc(N)c2C(N)=O)C1 (stereo not given) | -8.2% | i
32 | Cn1ncc2c(N3CCN(c4ccccc4F)CC3)ncnc21 | -12.4% | -23.1%
33 | CCOC(=O)c1ccc(NC(=S)N(CCCN(CC)CC)Cc2ccco2)cc1 | -20.0% | -22.4%
34 | CCOc1ccc(-c2cc(N3C(=O)Nc4ccccc4N3O)n[nH]2)cc1 | -10.3% | ?
35 | CC(C)c1ccc(NC(=O)c2cccnc2)cc1 | -11.1% | -0.3%
36 | Cn1cnc([N+](=O)[O-])c1Sc1nc(N)nc2c1ncn2C1OC(CO)C(O)C1O (stereo not given) | ? | ?
37 | S=C(Nc1ccccc1)Nc1nc2ccccc2n1CCOc1ccc(Cl)cc1 | ? | ?
38 | CCCCNC(=O)C1c2ccccc2OCC(=O)N1CCCN1CCOCC1 (stereo not given) | 3.3% | 38.9%[activator]
39 | O=C(NNS(=O)(=O)c1ccccc1F)c1cccc(S(=O)(=O)N2CCOCC2)c1 | -5.5% | i
40 | Cc1cc(N2CCOCC2)ccc1/C=C1\SC(=O)N(C(C)C)C1=O | -11.6% | i
41 | Cc1ccc(-n2c(SCc3nnc4n3CCC4)nnc2-c2ccccc2)cc1 | 2.8% | -0.9%
42 | COc1ccc(Cn2ccnc2SCC(=O)NCc2ccccc2)cc1 | -20.4% | -9.8%
43 | Cc1cccc(COC[C@H](CC(C)C)N2CCN(C(=O)c3ccc(C(C)(C)C)cc3)CCC2=O)c1 | -12.6% | -1.0%
44 | Clc1ccccc1OCCCOc1cccc2cccnc12 | -29.7% | ?
45 | Cc1cc(Nc2ccccc2)n(CCOC(=O)COc2ccccc2)n1 | -6.8% | nt
46 | O=C(O)CN(c1ccc(F)cc1)S(=O)(=O)c1ccc2c(c1)OCCO2 | -9.0% | -17.1%
47 | COCCCNC(=O)c1ccc(N2CCOCC2)c(NS(=O)(=O)c2ccc(OC)cc2)c1 | -4.2% | ?
48 | COc1ccc(C(=O)NCc2cnn(C)c2C)cc1OC1CCN(C(C)C)CC1 | -4.7% | -9.4%
49 | Cc1ccc(NC(Cc2cc(C)no2)c2ccccc2)cc1 (stereo not given) | -6.1% | -9.3%
50 | Nc1nc(SCc2ccc(Br)cc2)c2ncn(C3OC(CO)C(O)C3O)c2n1 (stereo not given) | -15.4% | -4.3%
51 | COc1cc(-c2coc3cc(OCc4ccccc4)c(OC)c(O)c3c2=O)cc(O)c1OC | -15.8% | -22.4%
52 | S=C(CN1CCCC1=S)NCCc1ccccc1 | -3.1% | ?
53 | CCC(C)C(=O)Nc1nnc(CCc2ccccc2)s1 (stereo not given) | -12.1% | i
54 | CCOC(=O)[C@]12CCC=C1N(CCC1=CCCCC1)C(=O)[C@H](CC(=O)NCc1cccs1)C2 | -7.3% | -3.7%
55 | NS(=O)(=O)c1cnccc1Nc1ccc(Cl)cc1 | -15.5% | -4.6%
56 | COc1ccc(C(=O)Nc2ccccc2C(=O)NC(Cc2ccc(O)cc2)C(=O)NNC(=O)c2ccncc2)cc1 (stereo not given) | -13.7% | -13.6%
57 | CCOC(=O)c1c(-c2ccc(OC)cc2)oc2ccc(OCc3ccc(F)cc3F)cc12 | 1.6% | -8.7%
58 | O=c1[nH]c(=S)[nH]cc1S(=O)(=O)c1cccc(Cl)c1 | -0.3% | i
59 | Cn1c(CNC(=O)c2ccccc2F)nnc1SCC(=O)N1CCN(c2ccccc2)CC1 | -12.7% | -15.6%
60 | CC(=O)NC(c1ccccc1)c1cc(Cl)c2cccnc2c1O (stereo not given) | ? | ?
61 | Cc1cc(C)cc(NC(=O)c2ccc(CSc3nnc(C)s3)cc2)c1 | -21.1% | -8.5%[1.46 µM]
62 | O=C(NCc1ccco1)C1CCCN(S(=O)(=O)Cc2ccccc2)C1 (stereo not given) | -2.3% | 3.3%
63 | CC1CCCN(c2ncnc3c2nnn3C)C1 (stereo not given) | -10.7% | -2.4%
64 | C=CCn1c(-c2csc(-c3ccc(Cl)cc3)n2)n[nH]c1=S | -17.8% | nt
65 | O=C(Nc1c2c(nn1-c1ccccc1)CS(=O)(=O)C2)c1cc2ccccc2o1 | -14.8% | -8.6%
66 | CCCCCn1c(=O)c(C(=O)Nc2nc3ccccc3[nH]2)c(O)c2ccccc21 | -10.4%[7.34 µM] | i[7.34 µM]
67 | CC(C)NC(=O)C1(C)Cc2c(-c3cccc(C(N)=O)c3)ccnc2O1 (stereo not given) | 0.3% | 0.0%
68 | CN(C)C(=O)CCc1ccc2c3c([nH]c2c1)[C@]1(C)[C@@H](C(=O)N2CCOCC2)C[C@H](CC(=O)NCC24CC5CC(CC(C5)C2)C4)C(=O)N1CC3 | -22.4% | -14.6%
69 | CCC(C)NC(=O)c1sc2ncccc2c1-n1c(C)ccc1C (stereo not given) | -12.2% | -12.9%
70 | COc1ccc(C(C)=O)cc1CSc1nnc(Nc2ccccc2)s1 | ? | -13.6%
71 | COc1ccc2c(c1)CCc1cnc(-n3ncc(C(=O)NCC(C)(C)CN(C)C)c3C)nc1-2 | -26.7% | ?
72 | CC(C)(CS(=O)(=O)[O-])NC(=O)CC[N+](C)(C)CCO | -8.4% | -17.4%
73 | Cc1ccc2c(c1)c(N1CCCC1=O)c(C(=O)Nc1ccc(F)cc1F)n2C | 6.5% | -3.8%
74 | O=C(Cc1cccc(C(F)(F)F)c1)NCc1ccc(Cl)cc1Cl | -0.4% | -11.5%
75 | O=C(O)Cc1c[nH]c2ccc(O)cc12 | -9.7% | i
76 | O=C1CCN(CCc2ccccc2)CCN1CCOc1ccccc1 | 7.7%&-17.9% | -1.1%
77 | Cc1onc(-c2ccccc2)c1C(=O)NNC(=O)c1ccccc1O | -19.2% | ?
78 | COc1ccc(/C=N/NC(=O)c2cccnc2)cc1COc1ccc([N+](=O)[O-])cc1 | -26.8% | -19.0%
79 | Cc1cn(CC(=O)NCc2ccccn2)c(=O)[nH]c1=O | 10.3% | -13.0%
80 | CCOc1ccccc1NC(=O)C1CCN(S(=O)(=O)c2c(C)noc2/C=C/c2ccco2)CC1 | -9.7% | i

Following part.
No. | Molecule | VACV Venus inh | VACV mCherry inh
81 | CC(C)CCn1c(COc2ccccc2)n[nH]c1=S | 7.3% | i
82 | COc1ccc(S(=O)(=O)N2CCOCC2)cc1NC(=O)COC(=O)c1[nH]c(C)c(C(C)=O)c1C | -10.7% | -6.5%
83 | COc1ccc(C(=O)N/N=C(\C)c2cccc(NC(=O)c3ccc(F)cc3)c2)c(OC)c1 | ? | ?
84 | S=c1nc[nH]c2c1ncn2C1CCCC1 | -8.8% | i
85 | O=C1c2ccccc2C(=O)N1CSc1nnc2c3ccccc3n(CCc3ccccc3)c2n1 | ? | nt
86 | CCCCNC(=O)CC1N=C2c3ccccc3N=C(SCC(=O)Nc3cccc(OC)c3)N2C1=O (stereo not given) | -12.8% | -9.5%
87 | CCC(CC)C(=O)OCC(=O)NC12CC3CC(CC(C3)C1)C2 | -12.7% | i
88 | CCOC(=O)C1=CNS(=O)(=O)NC1c1ccc(C)cc1 (stereo not given) | 3.4% | -1.0%
89 | CC1CCCCN1C(=O)CSc1nc(-c2ccccc2)cn1N (stereo not given) | -8.1% | i
90 | O=S(=O)(c1ccc(F)cc1)N1CCC(n2c(C(F)(F)F)nc3cccnc32)CC1 | 12.5% | 19.1%
91 | CCOC(=O)c1ccc(NC(=O)c2cc3sccc3n2Cc2ccc(Cl)cc2)cc1 | -7.3% | -15.9%
92 | CC1=NN(c2ccccc2)C(=O)/C1=C\c1cc(C)n(-c2ccccc2)c1C | -0.7% | -14.5%
93 | COc1ccc2cc([C@H](C)CO)ccc2c1 | ? | -12.9%
94 | CS(=O)(=O)N(CC(O)Cn1c2ccccc2c2ccccc21)c1ccccc1 (stereo not given) | ? | nt
95 | Cc1cccc2c1N(CCOc1ccccc1Cl)C(=O)C2=O | 0.3% | -14.3%
96 | COc1ccc(OCC(O)CON2C(=O)c3ccccc3C2=O)cc1 (stereo not given) | -19.4% | -0.6%
